Bioassay records: PubChem, National Center for Advancing Translational Sciences (NCATS)
CtBP-E1A blk – CtBP/E1A binding inhibition; AlphaScreen GST-E1A/His-CtBP binding, 1536-well; stronger effect = lower value; control for the full effect not named in the record; activity change, % (no concentration beside the values); 0.49% of 340,000 active; in the data active means activity change below about -65%; inconclusive means about -30% to -65%; inactive means above about -30%; further: on the % scale 0 is the no-effect control and ±100 the full control effect; compound concentration not given in the record
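GST-E1A and His-tagged CtBP (125 nM each as 5X stock) were preincubated with pin-transferred compound for 2 h at 37 °C in the dark, then glutathione donor and nickel acceptor beads were added for 1 h before AlphaScreen reading.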
Menin MLL FP FL – displaces fluorescein MLL peptide from human menin; 290,000 tested, under 10 active; Fluorescence polarization, fluorescein-MLL peptide displacement from menin; AID 1766; FP activity change, % at 61.4 µM; inconclusive = falling polarisation curve, or a change in total fluorescence; inactive = total fluorescence flat and polarisation flat or rising; no compound was filed as active; the % refers to the polarisation; negative = inhibition;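 further: % of control where 0% means no effect; inhibitors lower the polarisation; unlabelled MLL peptide was the positive control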
TRPV1 potentiator – enhances activation of the human vanilloid receptor TRPV1; potentiation, % at 8.33 µM; TRPV1-expressing cells, Fluo-8 calcium influx, capsaicin EC20 potentiation; host cell line not named in the record; control for the full effect not named in the record; 0.02% of 320,000 active; active means potentiation above 80%; inconclusive means 30% to 80%; inactive means below 30%; further: 0% is about no effect
Target sequence (Q8NER1 whole entry, looked up): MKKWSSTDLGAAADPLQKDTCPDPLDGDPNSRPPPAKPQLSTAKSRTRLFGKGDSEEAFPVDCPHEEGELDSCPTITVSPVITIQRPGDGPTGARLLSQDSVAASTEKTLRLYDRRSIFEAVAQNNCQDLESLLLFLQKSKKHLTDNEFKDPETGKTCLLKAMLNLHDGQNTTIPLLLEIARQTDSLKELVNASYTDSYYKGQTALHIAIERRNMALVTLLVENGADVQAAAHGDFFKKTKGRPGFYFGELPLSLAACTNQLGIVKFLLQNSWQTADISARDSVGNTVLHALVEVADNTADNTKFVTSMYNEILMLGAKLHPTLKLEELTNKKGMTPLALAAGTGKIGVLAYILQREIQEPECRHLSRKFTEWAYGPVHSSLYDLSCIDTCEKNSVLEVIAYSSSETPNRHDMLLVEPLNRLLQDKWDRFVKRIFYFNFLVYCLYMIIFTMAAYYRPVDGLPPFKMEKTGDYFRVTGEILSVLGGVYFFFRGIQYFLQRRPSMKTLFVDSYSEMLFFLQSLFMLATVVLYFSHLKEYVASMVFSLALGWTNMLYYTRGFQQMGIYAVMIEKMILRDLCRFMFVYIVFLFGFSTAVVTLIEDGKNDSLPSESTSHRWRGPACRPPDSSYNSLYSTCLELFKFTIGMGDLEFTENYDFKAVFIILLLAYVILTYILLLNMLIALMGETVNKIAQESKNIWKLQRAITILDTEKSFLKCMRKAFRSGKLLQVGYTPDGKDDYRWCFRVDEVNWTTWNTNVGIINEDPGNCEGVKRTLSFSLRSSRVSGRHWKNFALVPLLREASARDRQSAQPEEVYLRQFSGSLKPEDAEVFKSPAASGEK
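Fluo-8 calcium influx in TRPV1-expressing cells, kinetic read (ex 480/em 520 nm). Compound added and read 3 min for agonist activity, followed by capsaicin at EC20 final and 2 min further read for enhancement.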
ClpP mod – qHTS Assay for Activators of ClpP; purified B. subtilis ClpP, FRET peptide cleavage, 20 min; Potency, µM (titrated, usually from 57.5 µM), for the others: at the top dose activity change, negative = active; 1.9% of 340,000 active; AID 651965, 2013; active = well fitted falling curve with a large enough effect; inconclusive = small, poorly fitted or top-dose-only effect; inactive = no such curve, though single readings can be large or run the other way; further: potency means the concentration at half of the fitted maximal effect; the source files actives as falling curves though it sought activators and does not explain the sign; nearly all actives have a fitted effect of over 65% in size; many hits overshoot -100%
Target sequence (P80244 whole entry, looked up): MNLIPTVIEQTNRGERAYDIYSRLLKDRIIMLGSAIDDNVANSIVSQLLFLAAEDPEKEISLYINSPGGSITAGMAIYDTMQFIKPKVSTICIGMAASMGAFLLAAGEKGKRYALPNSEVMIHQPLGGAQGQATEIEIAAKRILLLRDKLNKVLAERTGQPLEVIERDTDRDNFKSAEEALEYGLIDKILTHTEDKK
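Purified B. subtilis ClpP, 10 microg/mL final in Tris/HCl pH8 with KCl, BSA, glycerol and Tween-20, cleaved an Abz/nitrotyrosine-quenched decapeptide. Fluorescence (ex 320, em 430) was read at 0 and 20 min at room temperature. Delta was normalized to 5.8 microM ADEP and DMSO/no-enzyme controls.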
gsp agonist – agonists of gsp mutant (McCune-Albright syndrome) | Potency, µM (series often up to 76.9 µM), without a hit: at the top dose activation (cAMP increase), hits mostly activators | gsp mutant cells, cAMP HTRF, 30 min; control for the full effect not named in the record | 0.13% of 340,000 active; active = well fitted activation curve with a large enough effect; inconclusive = small, poorly fitted or top-dose-only effect, or another doubt; inactive = no such curve, though single readings can be large or run the other way; cell line not stated here;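 further: phosphodiesterase inhibitor Ro 20-1724 added with compounds to block cAMP breakdown; potency means the concentration at half of the fitted maximal effect; nearly all actives have a fitted effect of over 60% in size; about a fifth of the inactives were tested at one dose only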
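Cells in DMEM/10% FBS with G418 were pretreated with compounds in DMSO plus […] (300 uM stock) for 30 min at 37C. cAMP was measured by HTRF (cAMP-d2 plus anti-cAMP antibody-K) after 30 min at room temperature.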
gsp antagonist – antagonists of gsp mutant (McCune-Albright syndrome) | gsp-mutant cells, cAMP HTRF, 30 min; control for the full effect not named in the record | Potency, µM (doses to about 76.9 µM), for the others: at the top dose activity change, negative = inhibition, usual class: inhibitors | 0.4% of 340,000 active; active = falling curve of any shape with a large fitted effect; inconclusive = falling curve, mostly with a smaller effect; inactive = flat or rising curve; cell line not stated here;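 further: intracellular cAMP measured with PDE inhibitor Ro 20-1724 present during compound exposure; potency means the concentration at half of the fitted maximal effect; on the % scale 0 is the no-effect control and ±100 the full control effect; nearly all actives have a fitted effect of over 65% in size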
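HTRF cAMP read-out (cAMP-d2 plus anti-cAMP antibody-K in lysis buffer, 30 min RT). Before lysis, cells are exposed to compounds with […] for 30 min at 37C in DPBS containing Ca/Mg, BSA and Tween 20.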
Sfp PPTase inh – blocks B. subtilis Sfp PPTase activity. Potency, µM, inactives show max response, negative = inhibition, actives largely listed as inhibitors. Q9F4F7. Biochemical Sfp PPTase activity, qHTS. AID 1490. 3.5% of 310,000 active; active means well fitted inhibition curve with a large enough effect; inconclusive means small, poorly fitted or top-dose-only effect, or another doubt; inactive means no such curve, though single readings can be large or run the other way;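 further: the enzyme is Sfp with the accession as filed and its product quenches rhodamine fluorescence; potency means the concentration at half of the fitted maximal effect; 0% = enzyme reaction without inhibitor and -100% = no enzyme wells; top concentration of the series not given in the record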
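Sfp 15 nM + cpd, 15 min RT; start w/ rhodamine-CoA 5 uM, BHQ-2-YbbR 12.5 uM (final); 50 mM Hepes pH 7.6, 10 mM MgCl2, 0.01% NP-40, 0.01% BSA; read 525/598 nm at 0 and 30 min.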
An asterisk follows results filed as active; ? = inconclusive; / = not tested or not shown; & = joins results of further samples; [ ] = remark or other dose.

SMILES | CtBP-E1A blk | Menin MLL FP FL | TRPV1 potentiator | ClpP mod | gsp agonist | gsp antagonist | Sfp PPTase inh
C=CCn1c(SCC(=O)c2[nH]c(C)c(C(=O)OC)c2C)nc2scc(-c3ccc(OC)c(OC)c3)c2c1=O | -1 | 3.5 | 18 | ? | -21% | -8% | 8%
CC(C)(O)C#Cc1ccc(CN2CCN(Cc3ccsc3)C(CCO)C2)s1 (centres undefined) | 3 | 2.7 | 5 | / | 4% | 8% | 7%
Cc1cc2ncc(-c3ncc(C(F)(F)F)cc3Cl)cn2n1 | 14 | -0.5 | 3 | -3.5% | -2% | -6% | 10%
CN(c1ccccc1)S(=O)(=O)c1cc(C(=O)Nc2ccccc2N2CCOCC2)ccc1Cl | 9 | / | / | -8.7% | 1% | ? | /
O=C(O)C1CCCN1C(=O)c1cncc(Br)c1 (centres undefined) | -10 | -0.6 | -15 | 0.5% | 13% | 13% | 17%
Cc1cc(C)c(C)c(S(=O)(=O)NC(C)C(=O)O)c1C (centres undefined) | / | 0.2 | 2 | -0.4% | 5% | 11% | 6%
O=C(O)CCc1ccccc1OC(=O)c1ccccc1 | / | 0.3 | 11 | 0.0% | -32%[inhibitor] | 5% | 8%
O=C(NCCCn1ccnc1)c1cc(-c2cccc(O)c2)on1 | / | -1.3 | 13 | -2.6% | 4% | 4% | 19%
Cc1cc(C)nc(NC(=O)CCCC(=O)O)c1 | -1 | 0.1 | 4 | 0.4% | 25% | 8% | 13%
CN(CC1CCCO1)S(=O)(=O)c1ccc(C(=O)Nc2nc(-c3ccccn3)cs2)cc1 (centres undefined) | -92* | 2.7 | 10 | -1.9% | -40%[inhibitor] | ? | 17%
O=C(Nc1cccc(Br)c1)/C(=C\c1cccnc1)NC(=O)c1ccco1 | -6 | 8.4 | 9 | -8.3% | 5% | 10% | 8%
Cc1ccccc1NC(=O)c1ocnc1C | 1 | 1.6 | 4 | 0.9% | 10% | 14% | 13%
COc1ccc(NC(=O)c2cccnc2)c(OC)c1 | 3 | 2.5 | ? | -1.8% | 7% | 10% | -17%
C[C@@H]1O[C@@H](OC[C@H]2O[C@@H](Oc3cc(O)c4c(=O)cc(-c5ccc(O)c(O)c5)oc4c3)[C@H](O)[C@@H](O)[C@@H]2O)[C@H](O)[C@H](O)[C@H]1O | -1 | / | / | 1.0% | / | -2% | /
FC(F)(F)c1cc(C(F)(F)F)c2ccc(N3CCN(c4ncccn4)CC3)nc2n1 | 14 | 6.1 | 1 | 2.0% | -4% | 1% | 19%
COc1cc(/C=N/NC(=O)c2nnn(-c3nonc3N)c2C(C)C)ccc1OCc1ccc(F)cc1 | -12 | / | 25 | / | 10% | ? | 17%
CNc1nc(N)nc(-c2cc(Cl)ccc2OC)n1 | / | -2.0 | 11 | -21% | 2% | 0% | 18%
CCOC(=O)c1sc(N(C)C)nc1-c1ccccc1 | 7 | 0.1 | -41 | 0.3% | 5% | 0% | 2%
CCCCN(C)S(=O)(=O)c1c(C)[nH]c(=O)[nH]c1=O | 12 | 1.4 | -1 | 0.1% | -5% | -4% | 7%
CCOC(=O)c1c(CN(C)C)n(C)c2ccc(OC(C)=O)cc12 | 4 | 4.7 | -1 | -1.7% | -3% | -7% | -5%
CCN(Cc1ccncc1)Cc1c(O)ccc2cc(Br)ccc12 | 20 | -0.6 | -8 | / | 22%[15.4 µM] | 0% | 45µM*
Cc1cc(C)c(NC(=O)Nc2ccccc2)c(Cl)c1 | 7 | -1.2 | 7 | 0.2% | -3% | 11% | 9%
Cc1ccnc(NS(=O)(=O)c2ccc(C(C)(C)C)cc2)c1 | / | -4.7 | 24 | / | / | / | 8%
c1ccc(C[n+]2csc3ccccc32)cc1 | 12 | ? | -1 | -0.8% | 3% | 4% | 18µM*
C(=N\N=C\c1cccs1)/c1cccs1 | 9 | 0.0 | -9 | / | 1%[15.4 µM] | 10% | 9%
COc1cccc(C2c3c(oc4ccc(F)cc4c3=O)C(=O)N2CCCN2CCOCC2)c1 (centres undefined) | 1 | 1.6 | -4 | -2.6% | -7% | -2% | -5%
COc1ccc2oc(C(=O)OCC(=O)NC3CCCC3)c(C)c2c1 | -7 | -1.0 | -14 | 3.9% | ? | -7% | -8%
COCCN(CCOC)C(=O)N1CCOCC1 | -20 | 13 | -6 | -1.3% | -1%[15.4 µM] | 7% | 17%
S=c1[nH]nc(-c2ccco2)n1/N=C/c1ccc(Br)s1 | -16 | -0.9 | 7 | 1.5% | ? | ? | -26%
CCOC(=O)C1CCCN(C(=O)c2cc(-c3ccco3)nc3ccccc23)C1 (centres undefined) | -2 | / | / | 5.0% | -4% | 1% | /
CCCCc1ccc(NC(=O)COCC)cc1 | 9 | 3.7 | -36 | 1.3% | 3% | 7% | 13%
COCCCNC(=O)c1sc2ncnc(N3CCc4ccccc4C3)c2c1C | -8 | -0.8 | -17 | 6.0% | 6% | 12% | -16%
O=C(Cc1cccs1)NNC(=S)NC(=O)c1ccco1 | -22 | -0.6 | 6 | / | -34%[15.4 µM] | 0% | -3%
O=C(Cn1ncc(N2CCCC2)c(Br)c1=O)c1ccc(Cl)cc1 | 4 | -2.1 | -3 | -0.9% | -2%[15.4 µM] | 3% | 6%
O=C(NNC(=O)C1CCN(C(=O)Nc2ccccc2)CC1)c1ccc(F)cc1 | 1 | / | 2 | -1.2% | -4% | 17% | /
CN(C)S(=O)(=O)c1ccc(N2CCCC2)c(C(=O)Nc2nc(-c3cc(F)ccc3F)cs2)c1 | 5 | 9.3 | 5 | -4.8% | -18% | 6% | ?
COc1ccccc1OCC(=O)Nc1ccccc1C(=O)N1CCCC1 | 18 | 5.2 | 4 | / | 2% | 9% | 12%
CCOC=C1C(=O)N(C(C)=O)c2cc(OC)c(OC)cc21 | -15 | / | / | / | -81%[inhibitor] | -3% | /
Cc1ccc(C(c2cc(Cl)c3cccnc3c2O)N2CCN(C)CC2)cc1 (centres undefined) | -85* | -19 | -10 | / | 8%[15.4 µM] | 8% | 35µM*
CCOc1ccc(NC(=O)c2c[nH]n3c(=O)cc(C4CCN(C(=O)OC(C)(C)C)CC4)nc23)cc1 | 1 | 4.3 | -14 | -4.7% | -4% | ? | 1%
COC(=O)c1ccccc1NC(=S)NC(=O)CC(C)C | 1 | 2.4 | 13 | 11% | 22% | -9% | 12%
CC(=O)c1ccc(N2CCc3ccccc3C2)c([N+](=O)[O-])c1 | -19 | 0.9 | -4 | 2.1% | 2% | -19% | 28µM*
COc1ccc(C(C)=O)cc1OCc1ccccc1 | 1 | / | / | -4.2% | ? | / | /
COc1ccccc1CNC(=O)c1ccc(Br)o1 | 3 | 0.1[94.6 µM] | 8 | -0.1% | ? | -1% | 6%&1%
COc1cccc(N2CCN(C(=O)CN3C(=O)NC(C)(c4ccc5ccccc5c4)C3=O)CC2)c1 (centres undefined) | -10 | / | ? | / | -6%[15.4 µM] | -15% | /
Cc1nc2scc(C)n2c(=O)c1S(=O)(=O)N1CCN(c2cccc(C(F)(F)F)c2)CC1 | -22 | -0.5 | -18 | -8.7% | 34% | -20% | -6%
CC(OC(=O)Cn1[nH]c(=O)c2ccccc2c1=O)C(=O)Nc1ccccc1[N+](=O)[O-] (centres undefined) | -3 | / | -3 | 8.0% | 27% | 1% | /
CCN1C(=O)c2cccc3c(S(=O)(=O)Nc4ccccn4)ccc1c23 | -1 | -0.5 | 20 | -3.5% | 28% | 7% | 9%
CC[C@@]12C(=O)N(c3cccc(Br)c3)C(=O)N1[C@H](c1ccc(F)cc1)[C@@H]1C(=O)N(C3CCCCC3)C(=O)[C@@H]12 | -5 | / | ? | -0.1% | -33%[inhibitor] | -10% | /
COc1ccc(C(=O)/C=C/c2ccc(O)cc2)c2c1CC(O)C(C)(C)O2 (centres undefined) | 23 | / | / | 0.1% | / | -18% | /
Cc1ccc(NC(=O)CSc2nc3c(c(=O)n(C)c(=O)n3C)n2C)cc1 | -5 | -1.8 | -13 | / | 17%[15.4 µM] | 6% | 15%
COC(=O)CCC(=O)NC(=S)Nc1ccc(S(=O)(=O)Nc2cc(C)on2)cc1 | 0 | -4.4 | 7 | -1.4% | 17% | 5% | -18%

Two entries from above, tab-delimited:
smiles	CtBP-E1A blk	Menin MLL FP FL	TRPV1 potentiator	ClpP mod	gsp agonist	gsp antagonist	Sfp PPTase inh
Cc1ccc(NC(=O)CSc2nc3c(c(=O)n(C)c(=O)n3C)n2C)cc1	-5	-1.8	-13	/	17%[15.4 µM]	6%	15%
COC(=O)CCC(=O)NC(=S)Nc1ccc(S(=O)(=O)Nc2cc(C)on2)cc1	0	-4.4	7	-1.4%	17%	5%	-18%

Compounds shown so far with two or more sulfur atoms (nine):
SMILES | CtBP-E1A blk | Menin MLL FP FL | TRPV1 potentiator | ClpP mod | gsp agonist | gsp antagonist | Sfp PPTase inh
C=CCn1c(SCC(=O)c2[nH]c(C)c(C(=O)OC)c2C)nc2scc(-c3ccc(OC)c(OC)c3)c2c1=O | -1 | 3.5 | 18 | ? | -21% | -8% | 8%
CC(C)(O)C#Cc1ccc(CN2CCN(Cc3ccsc3)C(CCO)C2)s1 (centres undefined) | 3 | 2.7 | 5 | / | 4% | 8% | 7%
CN(CC1CCCO1)S(=O)(=O)c1ccc(C(=O)Nc2nc(-c3ccccn3)cs2)cc1 (centres undefined) | -92* | 2.7 | 10 | -1.9% | -40%[inhibitor] | ? | 17%
C(=N\N=C\c1cccs1)/c1cccs1 | 9 | 0.0 | -9 | / | 1%[15.4 µM] | 10% | 9%
S=c1[nH]nc(-c2ccco2)n1/N=C/c1ccc(Br)s1 | -16 | -0.9 | 7 | 1.5% | ? | ? | -26%
O=C(Cc1cccs1)NNC(=S)NC(=O)c1ccco1 | -22 | -0.6 | 6 | / | -34%[15.4 µM] | 0% | -3%
CN(C)S(=O)(=O)c1ccc(N2CCCC2)c(C(=O)Nc2nc(-c3cc(F)ccc3F)cs2)c1 | 5 | 9.3 | 5 | -4.8% | -18% | 6% | ?
Cc1nc2scc(C)n2c(=O)c1S(=O)(=O)N1CCN(c2cccc(C(F)(F)F)c2)CC1 | -22 | -0.5 | -18 | -8.7% | 34% | -20% | -6%
COC(=O)CCC(=O)NC(=S)Nc1ccc(S(=O)(=O)Nc2cc(C)on2)cc1 | 0 | -4.4 | 7 | -1.4% | 17% | 5% | -18%
